Autofluor counter = flagged as autofluorescent in microsphere protease counterscreen | compound autofluorescence counterscreen, microsphere flow cytometry; active compounds read high | fluorescence intensity (no concentration beside the values) | 360,000 tested, 3.1% active | AID 624483;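 active = at least 3 SD above the mean of all compounds, about 16000 in these data; inconclusive = too few beads counted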;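 also: 100 nL of 1 mM stock went into each well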
Sa RN4220 lethal = growth inhibition of S. aureus RN4220, primary screen, OD600; 16 h; 330,000 tested, 0.33% active; inhibition, % (no concentration beside the values);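 active = z-score of -3 or lower and OD600 up to 0.18 on both plates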;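 also: plate controls were untreated cells for no effect and reference antibiotic for full effect; stock transfer was 100 nL into about 80 µL; one replicate is shown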
Mtb hypoxia inh = PubChem AID 1159583. 300,000 tested, 0.1% active. M. tuberculosis hypoxia-regulated fluorescent reporter, fluorescence. fluorescence inhibition, % (no concentration beside the values);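 active = 35 to 45% if threefold the growth effect, above 45% if 1.5-fold the growth effect; inactive = the rest, general growth blockers included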;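 also: wells of about 50 µL received 100 nL stock; 0% = vehicle wells and 100% = reference inhibitor wells; whole bacteria with a GFP reporter of the hypoxia response; strong numbers were not always called active; many hits fall short of the cut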
BJeLR viability = MLPCN primary cell-based screen for lethality selective to Ras in HRASV12 cells. inhibition, % (test concentration not listed). 300,000 tested, 0.17% active. BJeLR (HRASV12) viability, CellTiter-Glo ATP luminescence, 48 h; reference of the scale not given here;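 active = replicate mean above 50%; inconclusive = above 50% but judged a plate artefact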;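 also: 50 nL library stock added to about 25 µL; numbers are from one replicate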
PrP 5UTR inh = inhibition of PrP 5' UTR reporter expression; cell-based PrP 5' UTR mRNA reporter, plate reader; 340,000 tested, 0.35% active; inhibition, % (no concentration beside the values);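 active = every replicate at 50% or more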;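 also: 0 = median of the neutral control wells; tested in H4 reporter cells; numbers are from one replicate; inactives centre near -14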
Sa ugtP lethal = growth inhibition of ugtP-null S. aureus, primary screen, RN4220 ugtP deletion, OD600; growth inhibition, % (no concentration beside the values); 16 h; some inactives read as strong as hits; 330,000 tested, 0.54% active; AID 1259309, 2017;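 active = z-score under -3 and OD600 up to 0.15 on both plates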;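 also: plate controls were untreated wells for no effect and antibiotic for full effect; wells of about 80 µL received 100 nL stock; the first replicate is given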
Mtb hypoxia inh growth = recorded beside Mtb hypoxia inh, whose call it bears; growth inhibition, %; measured here: M. tuberculosis growth (absorbance);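 0% = vehicle and 100% = reference antibiotic; read after six days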
The depositor's hits bear a star; ? = inconclusive; · = no result given.

smiles,Mtb hypoxia inh,Mtb hypoxia inh growth,Sa RN4220 lethal,BJeLR viability,PrP 5UTR inh,Sa ugtP lethal,Autofluor counter
COc1ccc(NC(=S)N2CCCC2)cc1,2,1,2.1,12,-24,2,2143
CC1=C(C(=O)OC(C)(C)C)C(c2ccco2)C(C#N)=C(N)O1 (configuration not stated),10,1,5.3,-6,-15,10,11453
N=c1oc2ccc(Br)cc2cc1C(=O)NCc1ccccc1,3,5,3.3,7,-17,3,5100
CCOc1ccccc1Nc1ncnc2c1cnn2-c1ccccc1,9,10,3.7,5,-26,12,5328
S=C(N=c1sccn1Cc1ccccc1)NC1CC1,-1,2,5.1,·,·,-1,·
O=C(NCc1ccccn1)C1CCCN(S(=O)(=O)c2cccc3nsnc23)C1 (configuration not stated),9,14,-0.2,6,-9,4,3797
CC12CCC(C/C1=N\N=C1\NC(=O)/C(=C\c3ccc(Cl)cc3)S1)C2(C)C (configuration not stated),·,·,·,-2,-10,·,2007
Cn1cnc2c(oc3ccccc32)c1=O,12,-1,4.1,0,-18,8,?
COc1cc2cc(C(=O)N/N=C/c3ccccc3Cl)[nH]c2cc1OC,·,·,·,1,19,·,3399
O=C(Nc1nncs1)C(Sc1ccccc1)c1ccccc1 (configuration not stated),1,7,4.4,-3,-22,-1,2469
C/C(Cn1nc([N+](=O)[O-])cc1C)=N\NC(=O)COc1ccccc1[N+](=O)[O-],·,·,·,-2,-12,·,2068
CN(CC(=O)Nc1cccc(F)c1)C(=O)/C=C/c1ccc2ccccc2n1,0,0,3.0,9,-2,-2,6351
COc1ccc(S(=O)(=O)N=C2C=CC(=O)C(C)=C2C)cc1,-5,2,0.8,·,·,-11,·
Cc1ccc(-c2cn3c(=O)cc(C)[nH]c3n2)cc1,19,5,4.5,-7,-44,4,2832
COc1ccc(OC)c(-n2c(CNC3CCN(Cc4ccccc4)CC3)nc3ccccc3c2=O)c1,3,5,3.4,-16,-20,-4,11961
Cc1cc2nc(CSc3ccccc3)cc(=O)n2[nH]1,8,6,26,5,-21,8,4593
COc1ccc(OCCC(=O)NCC23CC4CC(CC(C4)C2)C3)cc1,10,5,6.7,10,-6,-6,2580
O=C(Nc1nnc(S(=O)(=O)N2CCOCC2)s1)c1cccc(Br)c1,·,·,·,10,-2,·,5544
CC1=NC(C(F)(F)F)(C(F)(F)F)C(C#N)=C(C)N1,5,-3,1.6,5,-11,4,7407
Cc1ccccc1CSc1nc(C(C)(C)C)cc(=O)[nH]1,14,-2,13,4,-26,7,3643
N/C(=N\NC(=O)Nc1ccccc1)c1ccccn1,13,2,3.9,-3,·,2,4009
COc1nnc(-c2ccc(N3CCCCC3)c(NC(=O)C3CCCCC3)c2)c2ccccc12,-1,-1,1.5,4,-19,-4,13968
CC1=CC2=NC(=O)/C(=C\c3cc(C)n(-c4ccccc4F)c3C)C(=N)N2O1,0,6,3.1,1,-17,1,7022
CCn1c(=O)n(CC)c2cc(N3CCCC3)c(NC(=O)c3ccc(F)cc3)cc21,·,·,·,9,-34,·,5723
COc1ccc(N2CCN(C(=O)C3(S(=O)(=O)c4ccc(C)cc4)CC3)CC2)cc1,0,11,5.0,3,-15,2,3490
O=C(NN=Cc1ccco1)c1cc(-c2ccc(Cl)cc2)n[nH]1,6,-4,3.9,·,·,-4,·
COCCN(C(=S)Nc1ccccc1C)C(C)c1cccnc1 (configuration not stated),3,2,2.6,7,-28,-1,2679
O=C(O)CC1COc2ccccc2N1S(=O)(=O)c1ccc(Br)cc1 (configuration not stated),12,8,5.5,-9,-6,5,3596
COC(=O)Cc1ccc(NC(=O)c2cccs2)cc1,·,·,2.4,1,-68,0,3152
CCOC(=O)C1=C(C)N(C)C(=S)NC1c1cc(OC)ccc1OC (configuration not stated),12,11,6.9,-4,-6,4,3729
CCCCCCC(=O)Nc1cc2c(C)cc(=O)oc2cc1C,·,·,6.6,1,-8,-1,3127
COC(=O)c1ccc(COC(=O)c2c(C)nn(Cc3ccccc3Cl)c2Cl)o1,2,0,-2.7,-1,-19,25,10899
O=C(Nc1ccc(N2CCCCC2)cc1)c1ccc2ccccc2n1,-2,16,10,7,-89,2,4693
COc1ccc2oc(C(=O)OCc3c(C)noc3C)c(C)c2c1,-5,5,3.3,7,-12,-6,1971
COc1ccc(CN2CCC(n3nccc3NC(=O)CCCc3ccccc3)CC2)cc1C,13,4,1.0,1,-5,0,4740
Cc1ccc(-c2sc(C)nc2CC(=O)O)cc1,·,·,3.9,-6,-11,4,3715
Cc1cc(Sc2nc(N)ncc2[N+](=O)[O-])ncn1,3,8,7.3,-14,-11,15,2431
COc1cc(C=NNS(=O)(=O)c2ccc(C(C)(C)C)cc2)cc([N+](=O)[O-])c1O,8,13,12,·,·,8,·
CCc1ccc(OCC(=O)NN=Cc2ccco2)c([N+](=O)[O-])c1,3,3,-1.5,·,·,-9,·
CN1CCN(c2ccc(Cl)cc2NC(=O)c2ccc(=O)n(C)n2)CC1,4,2,-1.6,11,-9,1,4217
COc1ccc(C(=O)C(CN2CCOCC2)c2ccccc2)cc1 (configuration not stated),21,13,9.4,15,-10,24,8801
c1ccc(SCc2nc(-c3ccccn3)no2)cc1,1,4,-11,4,-47,-2,2457
CSC(=CC(=O)c1ccccc1)SC,11,12,2.0,7,-30,-2,15687
CN(CC1CCOCC1)C(=O)CC1C(=O)NCCN1CC=Cc1ccccc1 (configuration not stated),5,3,4.0,·,·,4,·
Cc1ccc(CNC(=O)C2CCCN(S(=O)(=O)c3cnc[nH]3)C2)cc1 (configuration not stated),·,·,4.7,4,-14,9,5536
CN(C(=O)CSc1nncn1C)C1CCCN(Cc2ccccc2F)C1 (configuration not stated),15,4,2.9,-3,-8,0,5917
O=C(N/N=C/C1CC2CCC1C2)c1c[nH]c2ccccc12 (configuration not stated),·,·,·,13,-7,·,2061
Cc1ccc(-c2c(C)n([O-])c3c([n+]2=O)CCCC3)cc1,10,-2,1.1,0,-10,5,4978
COc1ccc(C(=O)Nc2cccc(S(C)(=O)=O)c2)cc1OC,-1,-9,0.3,-11,-16,4,2096
C/C(C=NNC(=O)CCn1nnc2ccccc21)=C\c1ccccc1,0,13,4.8,·,·,-3,·
COC(=O)CCC(=O)OC1(C)C(=O)C2=CN(C3CC3)C(c3ccc(OC)cc3)=CC2=C(Br)C1=O (configuration not stated),4,-1,6.1,-8,6,5,2225
Cc1ccc(-c2nc(CN3CCCCC3)cc(CN3CCCCC3)c2O)cc1,7,4,4.7,-4,-48,7,4699
Cc1ccc(S(=O)(=O)NCc2cccnc2)c(C)c1,6,11,2.6,0,-44,1,3905
CC(=O)N(CC(=O)N(CC(=O)O)c1ccc(Cl)cc1)c1ccc(Cl)cc1,19,11,3.6,·,-2,0,3642
c1ccc2c(c1)nc1n2CCN1CCN1CCCC1,17,5,8.0,-6,-14,11,4038
COc1ccc(CONc2ncnc3nonc23)cc1[N+](=O)[O-],5,7,8.1,-1,-16,17,5018
O=C(N/N=C/c1ccc(Cl)c(Cl)c1)c1ccc2nc[nH]c2c1,·,·,·,0,2,·,4377
COc1ccc(NC(=O)CCNS(=O)(=O)c2cccc3nonc23)cc1Cl,0,-2,3.7,3,-11,-7,5991
CCn1c(CSc2ncccn2)nnc1SCC(=O)N1CCCCC1,11,0,0.6,-8,-1,-1,3161
Cc1nc(C(F)(F)F)ccc1C(=O)N1CCCCC1,1,2,0.5,0,-15,1,2837

The results go on:
smiles,Mtb hypoxia inh,Mtb hypoxia inh growth,Sa RN4220 lethal,BJeLR viability,PrP 5UTR inh,Sa ugtP lethal,Autofluor counter
COc1ccc2c(c1)C(=O)CC(O)(C(F)F)O2 (configuration not stated),-7,3,4.9,5,-16,4,4501
C=CCc1ccc(OC)cc1,·,·,1.4,·,-6,-20,5791
Cc1ccc(NC(=O)c2cccc(S(=O)(=O)N3CCc4ccccc4C3)c2)nc1,8,1,6.2,-1,-18,-1,4293
Oc1ccccc1-c1n[nH]c(=S)n1Cc1ccco1,3,-5,0.1,15,-19,3,10827
CCOC(=O)C1CCN(C(=O)CCc2nc3sc4c(c3c(=O)[nH]2)CCCC4)CC1,4,16,1.5,-11,-7,4,?
Cc1cccc(Nc2nc(N)nc(CSc3nccn3C)n2)c1,0,6,0.9,-14,-53,6,10113
O=C(N/N=C/c1cccnc1)c1ccc(NC(=O)C(c2ccccc2)c2ccccc2)cc1,·,·,·,106*,4,·,2530
COc1ccc(Cl)cc1NC(=O)[C@@]1(CC(=O)O)CC(/C=C/c2ccccc2)=NO1,-11,7,1.7,0,-34,-1,3854
COc1ccc(CC(NC(C)=O)C(=O)NC2CCN(S(=O)(=O)c3cccc4ccccc34)CC2)cc1OC (configuration not stated),4,9,7.6,-7,-23,13,7858
Cc1nn(C)cc1C(=O)Nc1ccccc1Br,9,-3,7.7,4,-14,7,2068
CC(=O)Oc1oc(-c2ccccc2)nc1C=Nc1ccc(N(C)C)cc1,15,-5,1.5,-6,-7,6,4059
O=C(NN=Cc1ccncc1)c1ccc(NC(=O)c2cccc(Cl)c2)cc1,4,0,-5.1,·,·,3,·
CCOC(=O)c1cc(C(C)=O)c(=O)n(C)c1N,-79,-3,6.6,4,-42,-9,7848
CCC(CC)C(=O)c1c[nH]c(C(=O)NCc2ccccc2)c1,9,6,1.7,7,-21,9,3757
O=C(CSc1ccc(-c2ccc(Br)cc2)nn1)NCC1CCCO1 (configuration not stated),8,-4,2.4,2,-12,3,6297
Cc1ccc(C(=O)c2c3ccc(C(F)(F)F)cc3[n+]([O-])n2CCC(N)=O)cc1,7,9,4.9,4,-34,-1,3990
COc1ccc(NC(=O)c2cnc(C)cn2)c2ncccc12,0,1,4.0,4,·,3,·
CC(C)(C)c1cc(C(=O)N2CCc3ccccc3C2)ccn1,17,14,1.4,6,-19,4,3225
CC(C)CCNC(=O)C(c1ccc(O)cc1)N(Cc1ccco1)C(=O)CCC(=O)Nc1nccs1 (configuration not stated),4,3,2.9,4,-21,14,3631

In the list so far, nine contain an aryl thioether with sulfur outside any ring.
smiles,Mtb hypoxia inh,Mtb hypoxia inh growth,Sa RN4220 lethal,BJeLR viability,PrP 5UTR inh,Sa ugtP lethal,Autofluor counter
O=C(Nc1nncs1)C(Sc1ccccc1)c1ccccc1 (configuration not stated),1,7,4.4,-3,-22,-1,2469
Cc1cc2nc(CSc3ccccc3)cc(=O)n2[nH]1,8,6,26,5,-21,8,4593
Cc1ccccc1CSc1nc(C(C)(C)C)cc(=O)[nH]1,14,-2,13,4,-26,7,3643
Cc1cc(Sc2nc(N)ncc2[N+](=O)[O-])ncn1,3,8,7.3,-14,-11,15,2431
c1ccc(SCc2nc(-c3ccccn3)no2)cc1,1,4,-11,4,-47,-2,2457
CN(C(=O)CSc1nncn1C)C1CCCN(Cc2ccccc2F)C1 (configuration not stated),15,4,2.9,-3,-8,0,5917
CCn1c(CSc2ncccn2)nnc1SCC(=O)N1CCCCC1,11,0,0.6,-8,-1,-1,3161
Cc1cccc(Nc2nc(N)nc(CSc3nccn3C)n2)c1,0,6,0.9,-14,-53,6,10113
O=C(CSc1ccc(-c2ccc(Br)cc2)nn1)NCC1CCCO1 (configuration not stated),8,-4,2.4,2,-12,3,6297

Compound activity as filed in PubChem.

Random draw from the library; 4% or so of the library scored in one or more.
